# Mtb H37Rv: Mycobacterium tuberculosis H37Rv growth inhibition, cell based, confirmatory dose response (AID 1949). 100,000 compounds, 1.6% hits. inhibition, % at 10 µg/mL, or IC50 in µg/mL where a hit was titrated. most inactive calls were filed without a number and no value below 0 was filed;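 active means confirmed in a dose series; inconclusive means about 50% or more but not retested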;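 further: bacteria grown 7 days with compound before Alamar blue readout; 0% = untreated bacteria and 100% = reference antibiotic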
# An asterisk follows results filed as active; i = inactive; ? = inconclusive. An excerpt; the hit share may differ from the screen's.
SMILES,Mtb H37Rv
O=C(CN(c1cccc([N+](=O)[O-])c1)S(=O)(=O)c1ccccc1)NCc1ccccc1Cl,3%
Cc1cc(C)n(C(=O)CCC(=O)Nc2cccc(Cl)c2C)n1,i
Cc1nc(N2CCc3ccccc32)[nH]c(=O)c1CCC(C)C,2%
CCOc1cc(C2NC(=S)NC(C)=C2C(C)=O)cc(Br)c1OC(C)C (stereo not given),i
O=C(COc1ccc(Br)cc1)Nc1ccc(CN2CCOCC2)cc1,i
CCOC(=O)C1=CN(c2ccc(OCC)cc2)C=C(C(=O)OCC)C1c1ccc2c(c1)OCO2,2%
CCOc1cc(C=O)c(Cl)cc1OCc1ccccc1,i
COc1ccccc1OCCCC(=O)Nc1c(C)cccc1C,i
O=S1(=O)N=C(Nc2ccc(I)cc2)c2ccccc21,i
Cc1c(NC(=O)c2ccc(Cl)cc2Cl)c(=O)n(-c2ccccc2)n1C,5%
CC1CCN(c2ccccc2NC(=O)c2ccc([N+](=O)[O-])o2)CC1,i
O=C(COc1ccccc1)NCC(=O)Nc1nc(COc2ccccc2)cs1,i
O=C(CSc1nnc(NC(=O)c2ccccc2Cl)s1)c1ccc([N+](=O)[O-])cc1,i
CCOc1ccc(C(=O)NC(=S)Nc2cccc(C(=O)O)c2)cc1Cl,i
O=C(c1ccc(I)o1)N1CCc2ccccc2C1,i
COc1cc(CNC2CCCC2)c(Cl)cc1OC(C)C,i
Cc1ccc(NC(=O)Nc2ccc([N+](=O)[O-])cc2)cc1F,13µg/mL*
COC(=O)c1cccc(OCc2ccc([N+](=O)[O-])cc2)c1,i
COc1ccc(NC(=O)c2ccccc2SC)c(OC)c1,?
O=C(Nc1nnc(C2CC2)s1)c1cc2c(s1)CCCCCC2,i
CCCC(=O)Nc1ccc(Cl)c(NC(=O)c2ccc(Cl)cc2)c1,i
CCOc1ccccc1CC1C(=O)N(C)C(=O)N(C)C1=O,i
CSc1nc(C)cc(Oc2ccc(OCC(N)=O)nn2)n1,i
O=C(CC12CC3CC(CC(C3)C1)C2)n1cccn1,i
CSc1cccc(NC(=O)CNC(=O)c2ccc(-n3cnnc3)cc2)c1,i
COc1ccc(C)cc1S(=O)(=O)N(CC(=O)Nc1ccccc1F)Cc1ccccc1,i
C=CCn1c(SCC(=O)Nc2cccc(C(=O)OC)c2)nnc1-c1ccc(Br)cc1,i
Cc1nc(SCC(=O)Nc2ccc(F)cc2)nc2c1CCCC2,2%
Cc1ccc(-c2csc3ncn(Cc4cccc(Cl)c4)c(=O)c23)cc1,i
CCN(C(=N)N=C(N)N)c1ccccc1,i
CC(=O)Oc1cccc(N2C(=O)C3C4C=CC(C4=C(C)C)C3C2=O)c1 (stereo not given),i
COc1ccc(C2(C(N)=O)CCCC2)cc1,i
COC(=O)C1=C(C)NC2=C(C(=O)CC(C)(C)C2)C1c1c(F)cccc1F (stereo not given),2%
CCc1c(C)sc(NC(=O)Nc2cccc(Cl)c2)c1C(N)=O,i
O=C1c2ccccc2C(=O)N1CCCN1CCN(CCCN2C(=O)c3ccccc3C2=O)CC1,i
CCOC(=O)c1c(NC(=O)CN2C(=O)c3ccccc3C2=O)sc(C(=O)OC(C)C)c1C,i
O=C(Nc1cccc(C(=O)Nc2nc3ccccc3s2)c1)c1ccccc1,4%
COc1ccc(NC(=O)c2c(NC(=O)c3ccccc3Br)sc3c2CCCCC3)cc1,i
O=c1oc(-c2cc(Cl)cc(Cl)c2)nc2ccccc12,i
COc1ccccc1CNC(=O)c1cccc(NC(=O)c2ccccc2)c1,3%
CSc1cccc(NC(=O)CN(c2ccc(Br)cc2)S(C)(=O)=O)c1,2%
Cc1c(Cl)ccc(OCCN2CCCC(C)C2)c1C (stereo not given),i
CCn1c(SCC(=O)NCc2ccco2)nnc1-c1cccs1,1%
COc1ccc(O)c(-c2cc(-c3ccccc3[N+](=O)[O-])[nH]n2)c1,i
O=C(C1CC(c2ccc(Cl)c(Cl)c2)=NO1)N1CCC2(CC1)OCCO2 (stereo not given),i
O=C(CCc1ccccc1)Nc1ccc(N2CCN(Cc3ccccc3)CC2)cc1,i
Cc1ccccc1OCCOCCN1CCC(C)CC1,i
O=C(Nc1nc(-c2ccc(S(=O)(=O)N3CCCC3)cc2)cs1)c1cccc(Cl)c1,i

# 8 compounds from above, sorted by SMILES length, ascending:
SMILES,Mtb H37Rv
COc1ccc(C2(C(N)=O)CCCC2)cc1,i
COc1ccccc1OCCCC(=O)Nc1c(C)cccc1C,i
O=C(CC12CC3CC(CC(C3)C1)C2)n1cccn1,i
CCn1c(SCC(=O)NCc2ccco2)nnc1-c1cccs1,1%
O=C(Nc1cccc(C(=O)Nc2nc3ccccc3s2)c1)c1ccccc1,4%
CC(=O)Oc1cccc(N2C(=O)C3C4C=CC(C4=C(C)C)C3C2=O)c1 (stereo not given),i
COc1ccc(NC(=O)c2c(NC(=O)c3ccccc3Br)sc3c2CCCCC3)cc1,i
O=C1c2ccccc2C(=O)N1CCCN1CCN(CCCN2C(=O)c3ccccc3C2=O)CC1,i

# Next part
SMILES,Mtb H37Rv
O=C(O)c1cccc(NC(=S)NC(=O)C(c2ccccc2)c2ccccc2)c1,i
CCOC(=O)N1CCN(C(=O)COc2ccc(Br)cc2C)CC1,i
Cc1ccc(S(=O)(=O)N2C(=O)CCC2C(=O)NCc2ccco2)cc1 (stereo not given),i
Cc1onc(-c2ccccc2)c1C(=O)Nc1ccc(C(C)C)cc1,i
O=C(CSc1ncnc2scc(-c3ccccc3)c12)NCc1ccccc1,i
CCc1ccc(-c2cc(C(=O)Nc3cccnc3)c3ccccc3n2)cc1,?
O=C(O)C1CCN(C(=O)c2cccc(Cl)c2)CC1,7%
COc1ccc(S(=O)(=O)N(C)c2ccccc2)cc1[N+](=O)[O-],i
COc1ccc(CC(=O)NCCCN(C)Cc2ccccc2)cc1,i
CCOc1ccc(N(CC(N)=O)S(=O)(=O)c2ccc(Cl)cc2)cc1,i
CS(=O)(=O)N(CCc1ccccc1)CC(=O)NCC1CCCO1 (stereo not given),i
O=C(O)C1C2C=CC(O2)C1C(=O)Nc1nc(-c2ccc(F)cc2)cs1 (stereo not given),i
CCOc1ccc(NS(=O)(=O)c2ccc(NC(=O)COc3ccc(C)cc3)cc2)cc1,i
CC(C)(C)c1cc(Cl)ccc1OCCOCCNCCN,4%
COc1cc(Cl)c(C)cc1NC(=O)CCN1C(=O)c2cccc([N+](=O)[O-])c2C1=O,2%
COc1ccccc1NC(=O)c1ccc(Cl)cc1Cl,9%
COc1ccccc1OC(=O)c1ccc([N+](=O)[O-])cc1,i
CC(=O)c1ccc(NC(=O)c2ccc(C)c(Br)c2)cc1,i
COc1cc(OC)cc(C2=NC(C)(C)CO2)c1,8%
CCCn1ncc(Cc2cnn(CCC)c2C)c1C,i
Cc1cc(OCC(=O)Nc2ccccc2Br)c2c3c(c(=O)oc2c1)CCCC3,2%
Cc1ccc(C(=O)Oc2ccc(NS(=O)(=O)c3ccc(C)cc3C)cc2)cc1,4%
NS(=O)(=O)c1ccc(NC(=S)Nc2ccc(OCc3ccccc3)cc2)cc1,i
CCCCC(=O)Nc1ccc(C(=O)Nc2ccc(I)cc2)cc1,i
O=C(NCc1ccc(Cl)cc1Cl)c1ccc(F)cc1,i
CCn1c(SCC(=O)Nc2ccc(Cl)cc2C)nnc1C(NC(=O)c1ccccc1Cl)C(C)C (stereo not given),i
CCCC(=O)Nc1cccc(NC(=O)c2ncn[nH]2)c1,i
O=C(CN1C(=O)c2ccccc2C1=O)N1CCC(Cc2ccccc2)CC1,i
Cc1c(NC(=O)CSc2nnc(-c3ccncc3)n2Cc2ccccc2)c(=O)n(-c2ccccc2)n1C,i
Cn1c(=O)c([N+](=O)[O-])c(N2CCN(Cc3ccc(F)cc3)CC2)c2ccccc21,8%
CCOc1cccc(C(=O)NC(=S)Nc2ccc(N3CCC(C)CC3)cc2)c1,1%
CCOc1ccc(C(=O)Nc2ccc(Cl)cc2C(F)(F)F)cc1Br,34%
CCOc1ccccc1NC(=O)C1CCN(S(=O)(=O)c2ccc(OC)c(OC)c2)CC1,i
CCN(c1ccccc1)S(=O)(=O)c1cccs1,i
COC(=O)Cc1ccc2c(=O)c(Oc3cnn(-c4ccccc4)c3)c(C(F)(F)F)oc2c1,17%
COc1cc(NC(=O)c2ccccc2)ccc1NC(C)=O,i
CC(=O)Oc1c([N+](=O)[O-])cc2c(c1C)CCCC2,i
CCc1nc(-c2ccccc2O)n(-c2ccccc2)n1,i
CCC(=O)N1CCN(c2ccccc2NC(=O)c2ccccc2OC)CC1,i
Cc1ccc2nc3c(c(C)c2c1)CC(C)O3 (stereo not given),i
CCOC(=O)c1ccc(NC(=O)C(C)Oc2ccc(C)c(C)c2)cc1 (stereo not given),i
CCCCc1ccc(NC(=O)c2ccc(NS(=O)(=O)c3cccc4cccnc34)cc2)cc1,7%
COc1cc2c(cc1NC(=O)CCCN1C(=O)c3ccccc3C1=O)oc1ccccc12,i
O=C1CC(c2ccco2)CC2=C1C(c1cccnc1)n1ncnc1N2 (stereo not given),i
CC(Oc1ccc(Cl)cc1Cl)C(=O)Nc1ccc(N2CCN(S(C)(=O)=O)CC2)cc1 (stereo not given),2%
COc1ccc(NC(=S)N2c3ccccc3CC2C)cc1OC (stereo not given),i
CCOC(=O)c1cc(NC(=O)N(CC)CC)c(C)nc1C,i
CCOc1ccc(C(=O)NC(=S)Nc2cccc(C(=O)O)c2)cc1Br,3%

# 10 compounds picked at random from those above:
SMILES,Mtb H37Rv
CCC(=O)N1CCN(c2ccccc2NC(=O)c2ccccc2OC)CC1,i
COc1cc2c(cc1NC(=O)CCCN1C(=O)c3ccccc3C1=O)oc1ccccc12,i
CCCCc1ccc(NC(=O)c2ccc(NS(=O)(=O)c3cccc4cccnc34)cc2)cc1,7%
CCOC(=O)c1ccc(NC(=O)C(C)Oc2ccc(C)c(C)c2)cc1 (stereo not given),i
CCc1nc(-c2ccccc2O)n(-c2ccccc2)n1,i
CCOc1ccc(C(=O)NC(=S)Nc2cccc(C(=O)O)c2)cc1Br,3%
O=C1CC(c2ccco2)CC2=C1C(c1cccnc1)n1ncnc1N2 (stereo not given),i
CCOC(=O)c1cc(NC(=O)N(CC)CC)c(C)nc1C,i
COc1ccc(NC(=S)N2c3ccccc3CC2C)cc1OC (stereo not given),i
CC(Oc1ccc(Cl)cc1Cl)C(=O)Nc1ccc(N2CCN(S(C)(=O)=O)CC2)cc1 (stereo not given),2%

# New compounds follow.
SMILES,Mtb H37Rv
O=C(O)COc1ccc(/C=C2\C(=O)NC(=O)N(c3cccc(Cl)c3)C2=O)cc1Cl,i
O=C1CC(Nc2ccc(OC(F)(F)Cl)cc2)C(=O)N1c1ccc(F)cc1 (stereo not given),i
CC(=O)c1cccc(NC(=S)NC(C)c2cc(C)ccc2C)c1 (stereo not given),0%
CC(C)(C)NS(=O)(=O)c1ccccc1,i
O=C(/C=C/c1cccc(C(F)(F)F)c1)Nc1cccc2cccnc12,i
COc1ccc(N(CC(=O)Nc2cccc(Cl)c2C)S(C)(=O)=O)cc1Cl,i
CCc1ccc(Nc2nnc(-c3cc4cc(Cl)ccc4oc3=O)s2)cc1,1%
Cc1cn(C(=O)CN2C(=O)c3ccccc3C2=O)c(C)n1,i
Cc1cc(-c2cccs2)c2c(n1)sc1c(=O)[nH]c(=O)[nH]c12,i
O=C(NCc1ccccc1Cl)c1ccc(NC(=O)C2(c3ccccc3)CCOCC2)cc1,i
Cc1cc(C)nc(/N=C(/NC(=O)NC2CCCCC2)Nc2ccc(F)c(Cl)c2)n1,i
O=C(CSc1nc2cc(Cl)ccc2s1)OCc1ccccc1,?
Cc1c(Br)cc(C(=O)O)c(C)c1C,i
O=C(CSc1ccccc1)N1CCN(c2ccccn2)CC1,4%
COCCCNC(=O)C1CCN(S(=O)(=O)c2ccc(Br)cc2)CC1,4%
Cc1ccc(NC(=O)CN(c2cccc([N+](=O)[O-])c2)S(C)(=O)=O)cc1,5%
COc1cccc(NC(=S)NC(C)c2ccc(OC)c(OC)c2)c1 (stereo not given),i
Cc1ccc(NS(=O)(=O)c2ccccc2F)cc1C,i
O=C(CN1C(=O)C2C3C=CC(C3)C2C1=O)NCc1ccco1 (stereo not given),i
CC(=O)c1cccc(NC(=O)N2CCC(Cc3ccccc3)CC2)c1,7%
COc1ccccc1NC(=O)c1cc2c(n(-c3ccc(Cl)cc3)c1=O)CC(C)(C)CC2=O,i
Fc1ccccc1N1CCN(C(=S)NC2CCCCC2)CC1,1%
Cc1cccc(C)c1NC(=O)CCCc1ccccc1,i
C=CCNS(=O)(=O)c1cc(Cl)ccc1Cl,i
COC(=O)c1c(-c2ccc(Br)cc2)csc1NC(=O)c1ccoc1C,i
Cc1ccccc1CNS(=O)(=O)c1ccc2ccccc2c1,2%
COc1ccc(C2(CNC(=O)C(c3ccccc3)c3ccccc3)CCCC2)cc1,4%
O=C(Nc1ccc2oc(-c3cc(F)c(F)cc3Cl)nc2c1)c1cccnc1,2%
CC(C)C(=O)Nc1ccc(-c2nc3ccccc3s2)c(Cl)c1,28%
O=C(NC(=S)Nc1ccc(Cl)cc1Cl)c1cccc2c(Br)cccc12,i
O=C(Oc1cccc(Nc2ncnc3ccccc23)c1)c1cccs1,3%
Cc1ccc(N2CCN(S(=O)(=O)c3ccc(F)c(C)c3)CC2)c(C)c1,?
COCCCN1C(=O)C(O)=C(C(=O)c2ccc(C)o2)C1c1ccc(Br)cc1 (stereo not given),i
Cc1ccccc1C(=O)NC(=S)NC12CC3CC(CC(C3)C1)C2,4%
O=C(CC1CCCCC1)Nc1ccccc1,i
O=C(Cc1ccccc1)Nc1cccc(S(=O)(=O)c2cccc(NC(=O)Cc3ccccc3)c2)c1,i
CC(C)c1ccc(C(=O)N2CCN(c3ncccn3)CC2)cc1,i
O=S(=O)(NNC(=S)NCc1ccccc1)c1cc(Cl)ccc1Cl,i
COc1nnc(-c2ccc(C)c(S(=O)(=O)NCc3ccccc3)c2)c2ccccc12,i
CCCC(=O)Nc1cc(OC)c(OC)cc1C(=O)O,9%
O=C(NC1=NCCS1)Nc1ccc(Cl)cc1,i
O=C(CCC(=O)NC1CCCC1)Nc1nc(-c2cc3ccccc3oc2=O)cs1,i
